# Bioassay records deposited in PubChem by several laboratories.
# PrP UTR inh = inhibition of PrP 5' UTR reporter expression. cell-based PrP 5' UTR mRNA reporter, plate reader. inhibition, % (concentration not given with the values). 0.35% of 340,000 active. AID 488862, 2010;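 active = every replicate at 50% or more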;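 also: 0 = median of the neutral control wells; tested in H4 reporter cells; numbers are from one replicate; inactives centre near -14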
# ugtP null kill = growth inhibition of ugtP-null S. aureus, primary screen, RN4220 ugtP deletion, OD600; 16 h; some inactives read as strong as hits; growth inhibition, % (test concentration not listed); 0.54% of 330,000 active; AID 1259309, 2017;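 active = z-score under -3 and OD600 up to 0.15 on both plates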;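 also: plate controls were untreated wells for no effect and antibiotic for full effect; wells of about 80 µL received 100 nL stock; the first replicate is given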
# Mtb hypoxia rep = PubChem AID 1159583; M. tuberculosis hypoxia-regulated fluorescent reporter, fluorescence; fluorescence inhibition, % (test concentration not listed); 0.1% of 300,000 active;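 active = 35 to 45% if threefold the growth effect, above 45% if 1.5-fold the growth effect; inactive = the rest, general growth blockers included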;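 also: wells of about 50 µL received 100 nL stock; 0% = vehicle wells and 100% = reference inhibitor wells; whole bacteria with a GFP reporter of the hypoxia response; strong numbers were not always called active; many hits fall short of the cut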
# RN4220 kill = growth inhibition of S. aureus RN4220, primary screen, OD600; inhibition, % (no concentration beside the values); 0.33% of 330,000 active; AID 1259311, 2017; 16 h;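 active = z-score of -3 or lower and OD600 up to 0.18 on both plates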;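 also: plate controls were untreated cells for no effect and reference antibiotic for full effect; stock transfer was 100 nL into about 80 µL; one replicate is shown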
# Autofluor counter = compound fluorescence in toxin protease inhibitor counterscreen | compound autofluorescence counterscreen, microsphere flow cytometry; hits give high values | fluorescence intensity (no concentration beside the values) | 3.1% of 360,000 active | AID 624483;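 active = at least 3 SD above the mean of all compounds, about 16000 in these data; inconclusive = too few beads counted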;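 also: 100 nL of 1 mM stock went into each well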
# BJeLR lethal = MLPCN primary cell-based screen for lethality selective to Ras in HRASV12 cells; BJeLR (HRASV12) viability, CellTiter-Glo ATP luminescence, 48 h; reference of the scale not given here; inhibition, % (no concentration beside the values); 0.17% of 300,000 active;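 active = replicate mean above 50%; inconclusive = above 50% but judged a plate artefact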;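 also: 50 nL library stock added to about 25 µL; numbers are from one replicate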
# Mtb hypoxia rep growth = also measured in Mtb hypoxia rep; calls as there; growth inhibition, %; measured here: M. tuberculosis growth (absorbance);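 0% = vehicle and 100% = reference antibiotic; read after six days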
# Starred values were filed as active, the others as inactive; ? = inconclusive; / = no result given. No enrichment for hits; about 4.1% have a hit in one of these screens.
entry	SMILES	PrP UTR inh	ugtP null kill	Mtb hypoxia rep	Mtb hypoxia rep growth	RN4220 kill	Autofluor counter	BJeLR lethal
1	COc1ccc(N/C(N)=N/c2nc(CSc3ccc(Cl)cc3)cc(=O)[nH]2)cc1	-14.6	-28.1	-4.9	-4.9	4.5	10842	4.4
2	NC(=O)CC(NC(=O)c1ccc(Br)cc1)c1ccc(N2CCN(c3ccccc3)CC2)c([N+](=O)[O-])c1 (stereo unspecified)	3.2	15.0	5.8	15.1	4.4	3620	8.1
3	Cc1ccccc1C(OCC(O)CN1CCN(CCO)CC1)c1ccccc1 (stereo unspecified)	0.8	1.8	-3.8	-2.5	0.9	2811	-7.6
4	COCCN(C(=O)CSc1nc2ccccc2c(=O)n1C(C)COC)c1c(N)n(Cc2ccccc2)c(=O)[nH]c1=O (stereo unspecified)	-37.4	2.8	7.1	3.4	1.2	?	5.2
5	Cc1cc(C)n(CC(=O)NNC(=O)c2cncc(Br)c2)n1	-37.9	2.4	-1.7	4.7	3.6	3701	/
6	CCCn1c(=O)c(C(=O)Nc2ncccc2C)c(O)c2ccccc21	-6.4	12.0	-7.8	-8.7	30.3	3926	0.0
7	CC(C)C[C@H](NC(=O)N1CCn2c1nc1ccccc12)C(=O)N[C@@H](Cc1ccccc1)C(=O)O	-23.2	-2.0	/	/	4.0	5484	-1.8
8	CC(=O)c1c(C)[nH]c(C(=O)NCCc2cccc(C)c2)c1C	-35.1	-4.3	/	/	1.5	4718	9.1
9	COc1ccccc1CNC(=O)CN1C(=O)N(C)C2(CCCCC2)C1=O	3.1	3.1	-2.2	3.8	2.7	8900	/
10	COc1ccc(C2C3=C(CCCC3=O)N(CC(=O)O)C3=C2C(=O)CCC3)cc1Cl	-13.3	0.9	-0.5	-9.4	3.6	3979	-0.3
11	COc1cccc(NCc2nnc(SCC(=O)N(C)C3CCS(=O)(=O)C3)n2C2CCCCC2)c1 (stereo unspecified)	-29.3	-0.5	4.2	1.0	-1.0	6061	-2.6
12	CCOC(=O)c1c(N)n(Cc2ccc(OC)cc2)c2nc3ccccc3nc12	/	2.4	-4.6	-1.4	1.8	/	7.3
13	Cn1nc(C(=O)NCc2ccccc2Cl)c2c1-c1ccccc1S(=O)(=O)C2	-4.7	5.8	6.7	11.8	3.5	6082	-5.0
14	CCOC(=O)C1C2COc3ccc(Br)cc3C2N2C(=O)CN(Cc3ccc(OC)cc3)C(=O)[C@@]12C (stereo partly specified)	/	-17.7	5.0	9.0	0.4	/	/
15	Cc1nc2c(ncn2-c2ccccc2)c(=O)n1NC(=O)CN1CCN(C)CC1	-12.8	5.6	7.6	4.5	0.4	5772	-3.3
16	COc1ccc(C(=O)Nc2ccc(C3CC3(Cl)Cl)cc2)cc1 (stereo unspecified)	-61.2	8.5	-7.8	1.5	19.2	3858	3.8
17	O=C(O)CCCCCN1C(=O)/C(=C/c2cn(-c3ccccc3)nc2-c2cccs2)SC1=S	-17.0	77.8	7.6	2.0	44.6	4469	/
18	COc1cccc2c(=O)cc(C)n(CC(=O)Nc3ccc(Br)cc3)c12	-28.9	-1.8	13.7	13.0	6.4	4251	-4.0
19	CCOC(=O)/C(C#N)=C/c1c(N2CCN(CC)CC2)nc2c(C)cccn2c1=O	-8.4	-5.8	-16.3	2.7	0.6	3456	-2.1
20	C=CCCC(=O)N1CCCC(Cc2cccc(Cl)c2)(C(=O)OCC)C1 (stereo unspecified)	-19.7	-5.1	5.0	10.0	8.2	3170	3.2
21	COc1ccc(OCC(O)CNC(=O)c2sccc2Cl)cc1 (stereo unspecified)	-4.8	7.2	12.6	5.5	2.8	6005	-2.5
22	COc1ccc(CC(=O)NCc2ccc(F)cc2)cc1S(=O)(=O)N1CCOCC1	-51.1	5.3	8.2	2.9	1.6	3940	/
23	COc1ccc([N+](=O)[O-])cc1C=NNC(=O)c1nonc1N	/	1.1	1.8	-2.2	3.3	/	/
24	CSc1ccc(S(=O)(=O)Nc2ccc(F)cc2)cc1	-8.0	-12.0	2.6	-2.7	8.5	3224	2.1
25	Cc1nc(N)sc1N=Nc1ccc(F)cc1	-47.2	-9.5	1.3	3.6	-2.0	8783	2.7
26	COc1ccc(/C=C/C(=O)OC2CCCCC2CN(C)C)cc1 (stereo unspecified)	-2.5	-3.7	4.5	-2.6	2.5	5862	7.5
27	Cc1cccc(OCCNC(=O)c2cc(-n3cnnc3)ccc2Cl)c1	-6.6	2.4	-4.9	-4.3	-2.8	5643	-12.8
28	Cc1ccccc1-n1c(SC(C)C(N)=O)nnc1-c1cccnc1 (stereo unspecified)	2.3	0.1	-0.4	-5.3	2.0	8675	1.6
29	CCOC(=O)C1CCCN(C(=O)CSc2nc(C)cc(C)n2)C1 (stereo unspecified)	-13.1	3.2	-4.0	-8.8	0.0	3277	1.3
30	Oc1ccc(Cl)cc1N=Nc1ccccc1	-22.6	9.1	6.3	6.5	9.0	3205	-1.3
31	COc1cc(C2C(C(=O)c3cccs3)=C(O)C(=O)N2c2cc(C)on2)ccc1O (stereo unspecified)	-8.2	7.5	/	/	4.5	3143	-11.0
32	O=C(NC12CC3CC(CC(C3)C1)C2)N1CCCC(CO)C1 (stereo unspecified)	-14.4	11.3	/	/	5.2	3672	-6.8
33	COc1cc(OC)c(OC)cc1CNCCc1ccc2c(c1)OCO2	-3.7	9.2	-3.1	-4.0	2.2	3742	4.0
34	O=C(Nc1ccc(Nc2ccccc2)cc1)c1ccc(Cl)c([N+](=O)[O-])c1	-3.1	-16.6	8.6	1.0	-6.6	3416	-4.3
35	CN(C(=O)c1cccc(NC(=O)Cc2ccc(NC(=O)C3CCN(C(=O)CCc4ccccc4)CC3)cc2)c1)C1CC1	2.2	5.7	-10.4	3.4	5.7	4012	/
36	O=C(O)c1cccc(N/N=C/c2cc(Br)cc(Br)c2O)c1	-17.1	/	/	/	/	2026	-1.6

# Screen by screen, from the results shown.
# Compounds 29–36 in BJeLR lethal read 1.3, -1.3, -11.0, -6.8, 4.0, -4.3, /, -1.6
# Compounds 29–36 in Autofluor counter read 3277, 3205, 3143, 3672, 3742, 3416, 4012, 2026

# Further compounds:
entry	SMILES	PrP UTR inh	ugtP null kill	Mtb hypoxia rep	Mtb hypoxia rep growth	RN4220 kill	Autofluor counter	BJeLR lethal
37	CCN(CC(=O)Nc1ccc(NC(C)=O)cc1)C(=O)CCCOc1cccc(C)c1	-18.3	1.3	10.7	9.3	0.9	?	3.8
38	CCCCNc1c([N+](=O)[O-])ncn1C	-23.7	2.3	7.2	4.0	1.5	3916	-6.2
39	COc1ccc(Br)cc1CSC(=N)N	-5.4	-1.1	12.7	6.8	4.2	4378	-5.8
40	COc1ccc(N(CC(=O)NCCSCc2ccc(C)cc2)S(=O)(=O)c2ccccc2)cc1	-14.7	-16.7	-3.6	11.3	-1.6	6370	-1.2
41	CS(=O)(=O)N1CCN(C(=O)c2ccc(F)cc2)CC1	-3.1	-1.8	-2.1	7.9	2.2	11125	-1.2
42	CC(C)CCC(C(=O)NC(C)c1ccccc1)C(=O)NC(C)c1ccccc1 (stereo unspecified)	-39.8	2.8	5.6	-10.1	-0.6	3208	2.2
43	N#Cc1c(-c2ccco2)cc(-c2cccnc2)nc1N	-5.9	-8.4	5.6	15.8	12.4	16031	-3.1
44	CSc1nc2sc3c(c2c(=O)[nH]1)CCC3	-17.0	-2.1	8.4	4.9	6.5	2408	11.4
45	O=[N+]([O-])c1ccc(Cl)c(S(=O)(=O)Nc2ccc(S(=O)(=O)N3CCOCC3)cc2)c1	-3.5	17.7	5.5	9.5	3.8	4438	11.1
46	CCCCc1cc(=O)oc2cc(C)cc(OC(C)C(=O)NCc3cccnc3)c12 (stereo unspecified)	-3.6	-1.8	-2.9	-0.4	-3.2	6018	3.0
47	CC(=O)NNC(=O)c1[nH]c2ccc(Cl)cc2c1-c1ccccc1	-7.0	-9.5	-7.0	-6.4	4.8	5071	-0.8
48	O=C(CN1C(=O)/C(=C2\SC(=S)N(C3CCS(=O)(=O)C3)C2=O)c2ccccc21)Nc1ccccc1 (stereo unspecified)	-5.7	-7.8	5.3	-1.2	5.7	2719	/
49	Cc1ccc(NC(=O)c2cc(NC(=O)c3ccco3)ccc2N2CCOCC2)cc1	-16.0	1.9	7.9	13.2	2.7	6831	-2.8
50	O=C(NCCc1ccccc1)c1oc2ccccc2c1COc1ccccc1	-16.9	-2.8	2.4	6.1	-11.7	3635	-1.4
51	CC(=O)c1ccc(-n2nnnc2SCC(=O)Nc2cccc(NC(=O)c3ccco3)c2)cc1	-16.5	-12.2	2.6	1.4	0.7	2518	-4.7
52	CC(C)c1onc(C(=O)N2CCC3(CC2)OCCO3)c1[N+](=O)[O-]	-92.4	2.6	0.7	9.4	2.0	4073	2.0
53	O=S(=O)(NCCOc1ccccc1)c1ccc2ccccc2c1	-3.3	2.7	4.5	11.4	7.0	19154*	-1.2
54	C#CCN(C(=O)c1cc(COc2cccc(C(F)(F)F)c2)on1)C1CCCCC1	-16.7	-13.7	10.9	7.8	7.6	5146	-6.1
55	CC(C)(C)NC(=O)N1CCN(c2ncccc2C(F)(F)F)CC1	-5.3	-2.8	-0.3	1.6	1.5	4537	-9.6
56	Cc1oc2cc3oc(=O)ccc3cc2c1C	-1.3	1.3	0.4	0.6	7.2	3122	-6.9
57	CCN(CC(=O)Nc1c(F)cccc1F)C(=O)c1ccc(-n2cncn2)c([N+](=O)[O-])c1	-18.5	2.5	11.0	-3.2	2.1	4702	-12.1
58	c1ccc(CNc2ccccn2)cc1	-11.1	2.6	-2.8	-4.5	0.8	4375	6.9
59	Cc1ccc2oc(=O)c3cc(C(=O)Nc4cc(-c5cccc(F)c5)no4)sc3c2c1	/	-10.5	/	/	0.5	/	0.2
60	CN1CCN(c2ccc(C(N)=O)cc2[N+](=O)[O-])CC1	-31.4	3.4	4.6	3.6	4.6	2713	3.2

# Complete entries, quoted from the list:
# Listed for `C#CCN(C(=O)c1cc(COc2cccc(C(F)(F)F)c2)on1)C1CCCCC1` : PrP UTR inh: -16.7; ugtP null kill: -13.7; Mtb hypoxia rep: 10.9; Mtb hypoxia rep growth: 7.8; RN4220 kill: 7.6; Autofluor counter: 5146; BJeLR lethal: -6.1
# Listed for `O=S(=O)(NCCOc1ccccc1)c1ccc2ccccc2c1` : PrP UTR inh: -3.3; ugtP null kill: 2.7; Mtb hypoxia rep: 4.5; Mtb hypoxia rep growth: 11.4; RN4220 kill: 7.0; Autofluor counter: 19154*; BJeLR lethal: -1.2

# (more compounds)
entry	SMILES	PrP UTR inh	ugtP null kill	Mtb hypoxia rep	Mtb hypoxia rep growth	RN4220 kill	Autofluor counter	BJeLR lethal
61	CCOC(=O)N1CCN(C(=O)CSc2ncnc3ccccc23)CC1	-19.6	-9.9	4.1	9.4	5.4	4332	-7.2
62	CC(C)[C@H](NC(=O)CCCn1nnc2ccccc2c1=O)C(=O)O	-14.9	2.1	8.3	8.9	9.4	4315	-3.8
63	CCOC(=O)/C(N=Nc1ccc2c(c1)OCO2)=C(\C)O	-87.9	-0.6	6.7	0.7	5.1	4449	/
64	Cc1cc(C(=O)NNc2c(Cl)cccc2Cl)no1	-23.5	-1.2	2.4	3.1	1.8	6415	-1.5
65	COc1ccc(-c2ccc(C)cc2)cc1[C@H]1[C@H]2C=CC[C@@H](C)[C@@H]2C(=O)N1Cc1ccccc1	13.7	/	/	/	/	3943	8.3
66	O=C(Nc1ccc(Cl)c(C(F)(F)F)c1)NC1CC2CCCC(C1)N2Cc1ccccc1 (stereo unspecified)	/	-20.9	13.2	6.4	17.6	/	9.4
67	O=C1Nc2c(ccc(Cl)c2Cl)C(=O)C1(F)c1ccccc1 (stereo unspecified)	-7.8	12.7	9.2	-5.5	-7.2	4346	0.5
68	Cc1cccc(OCc2nnc(SCC(=O)Nc3ccc(C)c(Cl)c3)o2)c1	-21.9	7.2	10.3	-0.1	0.9	11353	-0.5
69	O=C1CCC(C(=O)Nc2ccccc2N2CCOCC2)=NN1	-15.5	6.0	4.1	1.2	5.0	/	-3.2
70	Cc1ccc(NC(=O)CC(=O)Nc2ccc(C)cc2)cc1	-4.8	7.3	1.2	5.0	1.0	4995	0.5
71	CN1CC2C3C(=O)N(Cc4ccccc4)C(=O)C3[C@](Cc3ccccc3)(C1=O)N2C(=O)c1ccccc1 (stereo partly specified)	/	3.3	14.6	2.2	6.0	/	/
72	Clc1cccc(-c2ccc(CNCCCN3CCOCC3)o2)c1	-16.7	-5.2	23.2	12.9	8.7	2606	12.5
73	O=[N+]([O-])c1ccc(CSc2ccc(S(=O)(=O)N3CCCCCC3)cn2)cc1	-15.3	10.0	5.9	5.9	-1.0	5435	/
